BJeLR viability: kills HRASV12-expressing BJeLR cells; BJeLR (HRASV12) viability, CellTiter-Glo ATP luminescence, 48 h; reference of the scale not given here; AID 1554; inhibition, % (concentration not given with the values); 300,000 tested, 0.17% active;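 active = replicate mean above 50%; inconclusive = above 50% but judged a plate artefact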;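 also: 50 nL library stock added to about 25 µL; numbers are from one replicate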
Bead autofluor: compound fluorescence in toxin protease inhibitor counterscreen; compound autofluorescence counterscreen, microsphere flow cytometry; stronger effect = higher value; 360,000 tested, 3.1% active; fluorescence intensity (no concentration beside the values); AID 624483;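 active = at least 3 SD above the mean of all compounds, about 16000 in these data; inconclusive = too few beads counted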;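 also: 100 nL of 1 mM stock went into each well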
Sa ugtP lethal: compounds lethal to S. aureus RN4220 ugtP deletion mutant | OD600 growth, 16 h; some inactives read as strong as hits | growth inhibition, % (test concentration not listed) | 330,000 tested, 0.54% active | AID 1259309;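 active = z-score under -3 and OD600 up to 0.15 on both plates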;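 also: plate controls were untreated wells for no effect and antibiotic for full effect; wells of about 80 µL received 100 nL stock; the first replicate is given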
Mtb hypoxia inh: reduces hypoxia-regulated biosensor signal in M. tuberculosis | M. tuberculosis hypoxia-regulated fluorescent reporter, fluorescence | fluorescence inhibition, % (test concentration not listed) | 300,000 tested, 0.1% active | AID 1159583;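 active = 35 to 45% if threefold the growth effect, above 45% if 1.5-fold the growth effect; inactive = the rest, general growth blockers included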;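 also: wells of about 50 µL received 100 nL stock; 0% = vehicle wells and 100% = reference inhibitor wells; whole bacteria with a GFP reporter of the hypoxia response; strong numbers were not always called active; many hits fall short of the cut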
Sa RN4220 lethal: S. aureus RN4220 growth inhibition; AID 1259311; 330,000 tested, 0.33% active; inhibition, % (test concentration not listed); OD600, 16 h;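 active = z-score of -3 or lower and OD600 up to 0.18 on both plates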;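 also: plate controls were untreated cells for no effect and reference antibiotic for full effect; stock transfer was 100 nL into about 80 µL; one replicate is shown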
PrP UTR inh: suppresses PrP 5' UTR mRNA reporter expression | cell-based PrP 5' UTR mRNA reporter, plate reader | inhibition, % (concentration not given with the values) | 340,000 tested, 0.35% active | AID 488862;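 active = every replicate at 50% or more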;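 also: 0 = median of the neutral control wells; tested in H4 reporter cells; numbers are from one replicate; inactives centre near -14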
Mtb hypoxia inh growth: further read-out of Mtb hypoxia inh, marked with its call; growth inhibition, %; measured here: M. tuberculosis growth (absorbance);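 0% = vehicle and 100% = reference antibiotic; read after six days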
* hit, by the source's call; ? = inconclusive; . = not tested or not shown; & = joins results of further samples. Compounds as they come; 4% or so of the library scored in one or more.

SMILES | BJeLR viability | Bead autofluor | Sa ugtP lethal | Mtb hypoxia inh | Mtb hypoxia inh growth | Sa RN4220 lethal | PrP UTR inh
CCCCc1c(O)nc(SCC(=O)c2ccccc2)[nH]c1=O | -8 | 2339 | -4 | 4 | -1 | -0.8 | -17
COc1cc2c(cc1OC)C(COc1cccc(C(F)(F)F)c1)NCC2 (stereo unspecified) | -7 | 6264 | -6 | 5 | -5 | -2.0 | -18
CCOC(=O)c1[nH]c2ccc(F)cc2c1NC(=O)CCN1CCSCC1 | . | 4707 | 1 | . | . | 0.3 | -6
CCOC(=O)c1c(NC(=O)Cc2cccs2)sc(C(=O)NC2CCCCC2)c1C | 3 | 3551 | -4 | . | . | 1.7 | -5
CNC(=O)c1nc(C)n(-c2ccc([N+](=O)[O-])cc2)n1 | -6 | 3522 | 0 | 5 | 4 | 6.2 | 0
O=C(CSc1ccccn1)Nc1ccccc1F | 6 | 2228 | 5 | -5 | -1 | 6.6 | -13
CCOC(=O)C1CCN(C(=O)c2cc3c(OC)c(OC)c(OC)cc3[nH]2)CC1 | 5 | 3864 | 1 | 6 | 6 | 1.7 | -2
CCO[C@@H]1OC(C(=O)NCc2ccccc2)=C[C@H](c2ccc(C(F)(F)F)cc2)[C@H]1CCCO | -4 | 2925 | . | . | . | . | 6
Fc1ccccc1CN1CCC(Cc2ccccc2)CC1 | 2 | 3548 | 8 | 14 | 6 | 1.0 | -9
Cc1nc([N+](=O)[O-])c(C(=O)OCc2ccccc2)n1C | 1 | 4359 | 4 | 11 | 6 | 2.7 | -22
CC(NC(=O)c1cc([N+](=O)[O-])cc([N+](=O)[O-])c1)C1CC2CCC1C2 (stereo unspecified) | -7 | 3672 | 7 | . | . | -1.4 | -18
CCOC(=O)C1(Cc2cccc(Cl)c2)CCCN(C(=O)c2cc(CC)on2)C1 (stereo unspecified) | 2 | 5462 | 1 | 2 | -2 | 5.0 | -23
CCC1CCCCN1CCN1C(=O)C2C(C(=O)Nc3cccc(OC)c3)C3C=CC2(O3)C1C(=O)NC1CCCCC1 (stereo unspecified) | -2 | 4134 | 3 | 4 | -3 | 0.3 | -5
O=C(Nc1ccc2nc3n(c(=O)c2c1)CCCC3)c1ccccc1[N+](=O)[O-] | -5 | 2059 | 10 | 6 | 9 | 6.1 | -12
O=C(Oc1ccc(Br)cc1)c1cncc(Br)c1 | -8 | 4529 | 9 | 4 | -4 | 3.8 | -26
COC(=O)c1[nH]c2cc(OC)ccc2c1NC(=O)CCN1CCCC(C)(C)C1 | -7 | 9633 | 11 | -2 | 2 | 1.7 | -13
O=C(COc1ccccc1)Nc1c2c(nn1-c1ccccc1)CS(=O)C2 (stereo unspecified) | -4 | 6216 | 7 | 2 | -1 | 4.3 | -16
COc1c(C)cc(C(=O)C2CCCN(C(=O)CCCn3cncn3)C2)cc1C (stereo unspecified) | 6 | 3494 | -7 | -12 | 0 | -2.6 | -10
COC(=O)NN=C(c1ccccc1)C1CCCCC1 | . | . | 9 | 12 | 0 | 8.0 | .
N#C/C(=C(/O)c1ccco1)c1nc2ccccc2s1 | 0&3 | 3187&3005 | 64 | 3 | 7 | 75 | -43&-23
COc1ccc(N(CC(=O)N2CCN(c3ccccc3F)CC2)S(=O)(=O)c2c(C)noc2C)cc1 | 2 | 5451 | 7 | 5 | 1 | 2.4 | -16
CC(C)CCNC(=O)CNC(=S)N(Cc1ccccc1)Cc1cccnc1 | -1 | 10559 | -4 | 7 | 2 | 0.4 | 1
CC(=O)c1ccc(NC(=O)CSc2nc(C3CC3)nc3ccccc23)cc1 | 0 | 4092 | 7 | 4 | -2 | 0.1 | 15
CC1=NN(c2ccccc2)C(=O)/C1=C/C=C/c1ccc(N(C)C)cc1 | -4 | 3830 | -1 | 1 | 6 | 2.3 | -31

Part of the list above with just Sa RN4220 lethal and Bead autofluor.
compound	Sa RN4220 lethal	Bead autofluor
CCC1CCCCN1CCN1C(=O)C2C(C(=O)Nc3cccc(OC)c3)C3C=CC2(O3)C1C(=O)NC1CCCCC1 (stereo unspecified)	0.3	4134
O=C(Nc1ccc2nc3n(c(=O)c2c1)CCCC3)c1ccccc1[N+](=O)[O-]	6.1	2059
O=C(Oc1ccc(Br)cc1)c1cncc(Br)c1	3.8	4529
COC(=O)c1[nH]c2cc(OC)ccc2c1NC(=O)CCN1CCCC(C)(C)C1	1.7	9633
O=C(COc1ccccc1)Nc1c2c(nn1-c1ccccc1)CS(=O)C2 (stereo unspecified)	4.3	6216

(next part)
SMILES | BJeLR viability | Bead autofluor | Sa ugtP lethal | Mtb hypoxia inh | Mtb hypoxia inh growth | Sa RN4220 lethal | PrP UTR inh
CCN1C(=O)[C@H]2[C@H]3CN=C(SCc4ccc(C)cc4)N3[C@@](C)(C(=O)OC)[C@H]2C1=O | . | 3637 | 0 | -3 | 1 | 1.8 | -4
Cc1[nH]c2ccccc2c1C(=O)NS(=O)(=O)Nc1ccc(Cl)cc1 | 5 | 4505 | 23 | -1 | 0 | 13 | -22
COc1ccc(N2CCN(c3n[nH]c(N)n3)CC2)cc1 | -8 | 4437 | 5 | 5 | 2 | 1.8 | -3
CSc1nsc(SC)c1NC(=O)OCCc1ccccn1 | -2 | 2460 | 10 | 16 | 16 | 2.3 | -10
COc1ccc(C(=O)N2CC3(CC(c4cccc([N+](=O)[O-])c4)=NO3)C[C@H]2C(=O)NCC(N)=O)cc1 (stereo partly specified) | 2 | 3980 | . | . | . | . | -11
COc1ccc(CCNC(=O)c2nnn(-c3cc(C)cc(C)c3)c2N)cc1OC | -2 | 8944 | 12 | -7 | -3 | 3.9 | -20
Cc1noc(C)c1COc1cccc(C(=O)Nc2cccnc2)c1 | 5 | 4204 | -5 | -3 | 17 | 1.2 | -14
O=C(NN=CC1C(c2ccccc2)C1(Cl)Cl)c1cccc(Cl)c1 (stereo unspecified) | . | . | 9 | 10 | 4 | 13 | .
Cc1c(NC(=O)c2cccc(NC(=O)COc3ccccc3C#N)c2)c(=O)n(-c2ccccc2)n1C | . | . | 2 | -5 | -6 | 1.5 | 42
COCCn1c(SCC(=O)NC(=O)Cc2ccccc2)nc2ccccc2c1=O | . | 3453 | -3 | 19 | 6 | -2.4 | -9
CN1CCC(OC(c2ccccc2)c2ccc(Cl)cc2)C1 (stereo unspecified) | . | 2956 | 2 | 24 | 10 | -6.7 | -24
Cn1c(O)c(/C=N/c2ncccn2)c(=O)n(C)c1=O | 10 | 21865* | 8 | 3 | 0 | 4.0 | 7
Nn1cc(-c2ccccc2)nc1SCC(=O)NC1CCS(=O)(=O)C1 (stereo unspecified) | -9 | 8809 | -2 | 7 | 6 | 3.2 | -27
CCCc1cc(C(=O)O)c2ccccc2n1 | -9 | 11601 | 3 | 5 | 7 | 4.1 | -10
CCN1CC(CN(C)Cc2nc(-c3ccc(C(F)(F)F)cc3)oc2C)CC1=O (stereo unspecified) | 1 | 2134 | 1 | 11 | 9 | -1.0 | -7
CCCCc1nc(N2CCN(C(=O)c3ccco3)CC2)c(C#N)c2c1CCCC2 | 1 | 4591 | 30 | 10 | 2 | -7.8 | 10
CCCSc1nnc(C(C)C)n1N | 4 | 22250* | -9 | 0 | 9 | 3.6 | -15
O=C(CCC(=O)Nc1cccc(C(F)(F)F)c1)NCC1CCCO1 (stereo unspecified) | -11 | 4659 | 2 | 11 | -1 | 3.2 | -13
CCOC(=O)N1CCN(C/C(Cl)=C/c2ccccc2)CC1 | -2 | ? | 1 | 20 | 10 | 2.9 | -36
Cc1ccc(NC(=O)C(=O)c2ccc(C)cc2)cc1 | -2 | 5527 | 17 | -1 | 10 | 2.9 | -95
COc1cc(C=NN2CCN(Cc3ccc(C)cc3)CC2)cc(OC)c1O | . | . | 0 | -6 | -5 | 1.0 | .
Cc1cc(/C=C2\SC(=S)N(C)C2=O)c(C)n1-c1cccc(O)c1 | 3 | 5658 | 27 | 20 | 16 | 19 | 38
CN(C)CCNc1oc(-c2ccccc2F)nc1C#N | 8 | 6221 | -7 | . | . | -3.9 | -9
COc1ccc(S(=O)(=O)N(C)CC(=O)Nc2ccc(F)cc2)cc1 | 5 | 9114 | 12 | 14 | 9 | 5.2 | -10
CCOC(=O)C1=C(c2ccccc2)NC(=O)NC1c1ccc(O)c(Cl)c1 (stereo unspecified) | 0 | 4260 | . | . | . | . | -5
N#CC(=C=[N-])c1nc2ccccc2nc1-[n+]1ccccc1 | -3&-6 | 4829&3878 | 0&-1 | 5&6 | -13&3 | -2.4&1.5 | -10&-18
Cc1cc(C)n(C(=O)CCCCCCCCC(=O)n2nc(C)cc2C)n1 | 1 | 6587 | 15 | 8 | 5 | -0.6 | -10
Cc1ccc(Sc2c([N+](=O)[O-])c(=O)n(C)c3ccccc23)cc1 | -7 | 3188 | 2 | 11 | 8 | 8.1 | -12
CC(C)Cn1c2ccccc2c2cc(C(=O)O)ccc21 | 6 | 10516 | 0 | 8 | 6 | 9.3 | -14
CCOC(=O)c1[nH]c(C)c(C(=O)Nc2ccc(C)c(F)c2)c1C | 1 | 10824 | -10 | -3 | 5 | -2.3 | -16
COc1ccccc1NC(=O)c1ccc2c(c1)N(CC(=O)NC(C)C)C(=O)C(C)(C)O2 | 3 | 3792 | 1 | 12 | -2 | 2.3 | -24
O=C(O)COc1ccccc1C1C2C(=O)N(c3ccccc3)C(=O)C2ON1c1ccccc1 (stereo unspecified) | 4 | 2679 | -2 | . | . | 3.0 | -9
C[C@H](N)C(=O)OCc1ccc([N+](=O)[O-])cc1 | 1 | 3635 | 10 | 5 | 0 | -0.2 | -12
O=C(Cn1cc(C(=O)c2cccs2)c2ccccc21)NC1CCCCC1 | 6 | ? | -10 | 4 | 0 | 7.0 | -17
CN(C(=O)c1ccc(NC(=O)C2CCCN(C(=O)OC(C)(C)C)C2)cc1)C1CCCCC1 (stereo unspecified) | . | 3623 | 1 | 4 | 7 | -0.5 | -44
COc1ccccc1CNC(=O)COC(=O)CCC(=O)c1cccs1 | 0 | 4317 | 4 | -7 | 6 | 3.9 | -19
O=C(CN(Cc1ccc(Cl)cc1)C(=O)c1csnn1)NCc1ccc(F)cc1 | -12 | 3600 | 6 | -3 | -2 | 1.2 | -24
CC(NC(=O)c1ccccc1[N+](=O)[O-])C1CC2CCC1C2 (stereo unspecified) | -5 | 4126 | 9 | . | . | 10 | -4
COc1ccc(OCC(O)Cn2c(N3CCCCC3)nc3c2c(=O)[nH]c(=O)n3C)cc1 (stereo unspecified) | -12 | 3200 | 6 | 10 | 8 | 6.6 | -11
Cc1ccc(C=NNC(=O)c2cc3ccccc3cc2O)o1 | . | . | 0 | 0 | 17 | -3.7 | .
COc1cc(NC(=O)Nc2cccc(Cl)c2)c(C(=O)O)cc1OC | -7 | 5072 | 9 | -5 | -6 | 1.3 | -21
CCN(C(=O)COC(=O)c1ccc(Br)o1)C1CCCCC1 | 3 | 4601 | 4 | -7 | -4 | 3.5 | -12
CC(=O)Nc1cccc(CCc2nc3ccccc3[nH]2)c1 | 2 | 4155 | 13 | 9 | 9 | 3.9 | -45
COc1ccc(C(=O)N/N=C/c2c[nH]c3ccccc23)cc1 | -4 | 3093 | . | . | . | . | -42
O=C(N/C(=C/c1ccccc1)C(=O)N1CCCCC1)c1ccccc1 | 1 | 4838 | 6 | 1 | 4 | 2.0 | -27
COC(=O)c1ccc(-c2csc(NC(=O)C3=COCCO3)n2)cc1 | -3 | 5397 | 8 | 9 | -1 | 5.4 | -16
Cc1cccc(-n2c(SCc3cc(=O)n4c(C)cccc4n3)nc3[nH]ncc3c2=O)c1 | 6 | . | -1 | -11 | 2 | -2.8 | .
CCCCN(C)C(=S)Nc1ccc2nc(N3CCN(CC)CC3)cc(C)c2c1 | 22 | 3318 | 1 | 2 | -2 | 0.1 | -23
CC1CCCN(C(c2cccs2)c2nnnn2Cc2ccccc2)C1 (stereo unspecified) | 6 | 5546 | -12 | 14 | 16 | 13 | -11
CC(=O)n1nc(-c2ccncc2)nc1SCC(=O)Nc1cccc(Cl)c1 | -3 | 5787 | . | . | . | . | -26
CCCn1c(CCC(=O)O)nc2cc(S(=O)(=O)N3CCCC3)ccc21 | -3 | 4495 | 4 | 5 | 6 | 2.4 | -12

Whole records, looked up by structure. Screens in order: BJeLR viability	Bead autofluor	Sa ugtP lethal	Mtb hypoxia inh	Mtb hypoxia inh growth	Sa RN4220 lethal	PrP UTR inh
CC(=O)Nc1cccc(CCc2nc3ccccc3[nH]2)c1 is entered as 2	4155	13	9	9	3.9	-45
CC1CCCN(C(c2cccs2)c2nnnn2Cc2ccccc2)C1 (stereo unspecified) is entered as 6	5546	-12	14	16	13	-11

Bioassay records: PubChem BioAssay, several laboratories
